Assay outcomes as filed in PubChem.
Sa growth inh: blocks Staphylococcus aureus growth; 170,000 tested, 0.53% active; AID 720641; relative growth, % (concentration not given with the values); S. aureus RN4220 growth, OD600, 20 h, 42 °C; hits give low values;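 active = growth at 42 °C up to 50% and 20 or more points under that at 30 °C, or under 10% at both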;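 note: 300 nL library stock went into each well; scaled to the means of positive and negative controls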
HCMV UL50-53 inh: inhibitors of HCMV UL50-UL53 nuclear egress complex interaction | HTRF UL50-UL53 interaction, normalized percent inhibition | inhibition, % (no concentration beside the values) | 190,000 tested, 0.15% active | AID 1918969;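 active = both replicates at 50% or more, plus weaker picks with an unusually low signal ratio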;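 note: stock transfer was 100 nL into about 20 µL; 0% = negative control wells and 100% = wells with untagged competitor protein; inactives centre near -12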
GIV Gai3 FP: blocks GIV peptide binding to rat Galpha-i3 | P08753 | Galpha-i3/FITC-GIV peptide fluorescence polarization, 90 min; hits give low values; scaled: aluminum fluoride 0%, vehicle 100% | 210,000 tested, 0.42% active | percent of control (FP), % (no concentration beside the values);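 active = replicate mean at 85% of control or lower, very high polarization wells dropped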;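 note: wells of about 15 µL received 100 nL stock; the first replicate is given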
Target sequence (P08753 whole entry, looked up): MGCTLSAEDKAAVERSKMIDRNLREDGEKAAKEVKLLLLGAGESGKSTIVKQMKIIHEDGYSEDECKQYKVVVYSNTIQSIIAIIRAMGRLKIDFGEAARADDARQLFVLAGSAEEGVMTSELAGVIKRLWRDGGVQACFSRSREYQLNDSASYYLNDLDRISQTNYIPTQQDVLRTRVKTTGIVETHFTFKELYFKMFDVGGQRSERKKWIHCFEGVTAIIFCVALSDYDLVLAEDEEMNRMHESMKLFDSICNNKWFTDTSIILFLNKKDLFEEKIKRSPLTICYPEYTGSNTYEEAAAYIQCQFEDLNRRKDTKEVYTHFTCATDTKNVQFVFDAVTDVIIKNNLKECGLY
Sa growth inh second temp: also measured in Sa growth inh; calls as there; relative growth, %; measured here: growth at 30 °C;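 optical density after 20 h as mean of two plates; 100% = untreated growth and lower means inhibition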
* = called active by the depositor; nt = no result given; & = joins results of further samples.

The opening 4 entries as a preview:
SMILES | Sa growth inh | Sa growth inh second temp | HCMV UL50-53 inh | GIV Gai3 FP
CCOc1ccc(CCNC(=O)c2cnc3c(-c4ccc(F)cc4)c(C)nn3c2C)cc1 | 96 | 94 | nt | 102
COCCNC(=O)c1cc(Sc2ccc(F)cc2F)nc2ccccc12 | 164 | 92 | nt | 97
O=C(NCCc1cnc[nH]1)C1CCN(c2ccc(Cl)cc2)C1=O (stereo unspecified) | nt | nt | -13 | 104
O=c1[nH]c2ccccc2nc1/C=C(\O)c1ccco1 | 90 | 93 | nt | 155

This part in full, from the first entry:
SMILES | Sa growth inh | Sa growth inh second temp | HCMV UL50-53 inh | GIV Gai3 FP
CCOc1ccc(CCNC(=O)c2cnc3c(-c4ccc(F)cc4)c(C)nn3c2C)cc1 | 96 | 94 | nt | 102
COCCNC(=O)c1cc(Sc2ccc(F)cc2F)nc2ccccc12 | 164 | 92 | nt | 97
O=C(NCCc1cnc[nH]1)C1CCN(c2ccc(Cl)cc2)C1=O (stereo unspecified) | nt | nt | -13 | 104
O=c1[nH]c2ccccc2nc1/C=C(\O)c1ccco1 | 90 | 93 | nt | 155
COc1ccc(OCC(=O)Nc2cccc(NC(=O)c3ccco3)c2)cc1 | 85 | 49 | -12 | nt
CCOC(=O)c1ccccc1NC(=O)NC(C)c1c(-n2cccc2)sc(C)c1C (stereo unspecified) | 85 | 86 | 13 | 107
COc1cc(CN(C)C(=O)CN2C(=O)C3C4C=CC(C4)C3C2=O)ccc1OC(F)F (stereo unspecified) | 91 | 93 | 7 | nt
CC(C)c1cc(Nc2cc(F)ccc2F)n2nc(-c3cccnc3)nc2n1 | nt | nt | 13 | 104
Cc1c(O)c(-c2ccccc2)c(=O)n(-c2ccccn2)c1-c1ccccc1 | 104 | 100 | 13 | 96
Cc1cccc(S(=O)(=O)Nc2cc(C(=O)O)ccc2N2CCN(c3cccc(Cl)c3)CC2)c1 | nt | nt | -54 | 103

5 entries from above, as comma-separated lines.
structure,Sa growth inh,Sa growth inh second temp,HCMV UL50-53 inh,GIV Gai3 FP
COCCNC(=O)c1cc(Sc2ccc(F)cc2F)nc2ccccc12,164,92,nt,97
O=C(NCCc1cnc[nH]1)C1CCN(c2ccc(Cl)cc2)C1=O (stereo unspecified),nt,nt,-13,104
O=c1[nH]c2ccccc2nc1/C=C(\O)c1ccco1,90,93,nt,155
COc1ccc(OCC(=O)Nc2cccc(NC(=O)c3ccco3)c2)cc1,85,49,-12,nt
CCOC(=O)c1ccccc1NC(=O)NC(C)c1c(-n2cccc2)sc(C)c1C (stereo unspecified),85,86,13,107

The list continues.
SMILES | Sa growth inh | Sa growth inh second temp | HCMV UL50-53 inh | GIV Gai3 FP
CCOc1ccc(NC(=O)CN(C)S(=O)(=O)c2ccc3[nH]c4c(c3c2)CCCC4)cc1 | 96 | 92 | nt | 106
CCC(C)OC(=O)C1CC=CCC1C(=O)Nc1ccc(C)cc1 (stereo unspecified) | 75 | 91 | 10 | nt
Cc1csc(C(C#N)C(=O)CSc2nc3cc(Cl)ccc3s2)n1 (stereo unspecified) | 52 | 31 | -26 | nt
Cc1cccc(NC(=O)CN(C)S(=O)(=O)c2ccc3c(c2)C(=O)NCC(=O)N3)c1C | nt | nt | -10 | 109
COc1ccc(-c2cc(C)no2)cc1S(=O)(=O)CCC(=O)N1CC=C(c2ccccc2)CC1 | nt | nt | -10 | 107
CSc1ccc(CNC(=O)c2cc3cc(S(=O)(=O)N4CCCCC4)ccc3n2C)cc1 | 72 | 87 | nt | 99
CC1CCCCN1C(=O)c1cnn2c(C(F)(F)F)cc(-c3ccc(Br)cc3)nc12 (stereo unspecified) | nt | nt | -16 | 97
CCn1c(CN2CCOCC2)nc2cc(NC(=O)c3cccc([N+](=O)[O-])c3)ccc21 | 107 | 87 | -98 | 102
CCOC(=O)c1noc2nc(C)nc(NCCN3CCOCC3)c12 | 94 | 106 | -11 | 111
COc1ccc(-c2nc(C(N)=O)c3[nH]c(=O)n(CC4CCCO4)c3n2)cc1O (stereo unspecified) | 112 | 102 | -42 | 115
Cc1nnc(SCC(=O)O)c2nn(-c3ccccc3)c(C)c12 | nt | nt | -3 | 129
O=C(Nc1ccncc1)c1cccc(S(=O)(=O)N2CCCC2)c1 | 100 | 91 | -19 | nt
Cc1occc1C(=O)Nc1ccc(N(C)C)cc1 | 97 | 88 | nt | 99
CC(C)c1ccc(OCC(=O)Nc2cc(-c3ccccc3)no2)cc1 | 101 | 93 | 4 | 102
COc1ccnc2c1c(=O)n(CC(=O)Nc1ccc(NC(C)=O)cc1)c(=O)n2C | nt | nt | 13 | 112
CCOC(=O)c1noc2ncnc(N3CCc4ccccc43)c12 | 101 | 85 | -27 | 102
CN(C)S(=O)(=O)c1cc(C(=O)NCC2CCCO2)c(Cl)cc1Cl (stereo unspecified) | 89 | 86 | -18 | nt
COc1ccc(-n2nc(C(=O)NC3CCCC(C)C3C)c3c4ccccc4n(C)c3c2=O)cc1 (stereo unspecified) | 103 | 89 | nt | 99
Cc1cccc(-c2noc(-c3cccnc3NCc3ccccc3Cl)n2)c1 | 97 | 90 | -35 | 100
COc1cccc(OC)c1C(=O)OCc1ccccc1C#N | 95 | 97 | -10 | nt
COc1cccc(CNC(=O)CSc2c3c(nc4cc(Cl)ccc24)CCCC3)c1 | 117 | 84 | -32 | 105
Cc1cc(NC(=O)CC(=O)Nc2ccc3nc4n(c(=O)c3c2)CCCCC4)no1 | 91 | 78 | 8&-21 | 100&102
CCc1ccccc1NC(=O)CCNS(=O)(=O)c1ccc2c(c1)CC(C)N2C(C)=O (stereo unspecified) | 102 | 85 | nt | 95
COc1ccc(OC)c(C(=O)Cn2cnc3sccc3c2=O)c1 | 91 | 90 | -22 | nt
O=S(=O)(Nc1ccccn1)c1ccc(F)cc1 | nt | nt | -16 | 94
O=C(Nc1nc2ccccc2c(=O)s1)c1ccc(Cl)cc1 | 85 | 94 | -12 | 103
CCc1ccc(C2CC(c3ccccc3)n3ncnc3N2)cc1 (stereo unspecified) | 87 | 59 | nt | 105
CCS(=O)CCSc1nc(-c2cccs2)cc(C(F)(F)F)c1C#N (stereo unspecified) | 105 | 94 | -13 | 100
CCC(C)Nc1cc(C)nc2c(-c3ccc(F)cc3)c(C)nn12 (stereo unspecified) | nt | nt | -22 | 103
COc1ccc(-c2nc3c(s2)CN(C(=O)c2cccc(Cl)c2)CC3)cc1 | nt | nt | -4 | 99
COc1cccc(NC(=O)Cn2cc(C(=O)c3ccccc3)c(=O)c3cc(OC)ccc32)c1 | 130 | 78 | nt | 102
O=C(CSc1ncnc2c1oc1ccccc12)Nc1ccc(F)cc1 | 94 | 86 | -28 | 107
COc1ccc(-c2noc(N3CCC(C(=O)N(C)c4ccccc4C)CC3)n2)cc1 | 89 | 78 | -31 | 105
O=C(Cc1cc(=O)[nH][nH]1)N/N=C/C=C/c1ccccc1 | 75 | 68 | -68 | 100
N#Cc1ccc(COC(=O)c2ccc(-n3cnc4ccccc43)cc2)cc1 | 89 | 95 | -16 | nt
Cc1ccc(Cl)cc1N(C)C(=O)c1sc2nc3n(c(=O)c2c1C)CCCC3 | 111 | 98 | -8 | 95
CCOC(=O)C1CCCN(C(=O)c2ccccc2OCC)C1 (stereo unspecified) | 95 | 90 | -18 | nt
CCNc1nc2c(c(=O)[nH]c(=O)n2C)n1CC(O)COc1ccc(Cl)cc1Cl (stereo unspecified) | 99 | 103 | -4 | 101
Cc1noc(Cn2c(=O)c3ccccc3n(CC(=O)Nc3ccccc3C(F)(F)F)c2=O)n1 | 117 | 97 | nt | 111
Cc1ccc(C(C)C)c(OCC(=O)OCC(N)=O)c1 | 113 | 96 | -10 | nt

Two consecutive records already listed:
SMILES | Sa growth inh | Sa growth inh second temp | HCMV UL50-53 inh | GIV Gai3 FP
Cc1noc(Cn2c(=O)c3ccccc3n(CC(=O)Nc3ccccc3C(F)(F)F)c2=O)n1 | 117 | 97 | nt | 111
Cc1ccc(C(C)C)c(OCC(=O)OCC(N)=O)c1 | 113 | 96 | -10 | nt

New compounds follow.
SMILES | Sa growth inh | Sa growth inh second temp | HCMV UL50-53 inh | GIV Gai3 FP
CCc1ccc2c(c1)c(=O)c(C(=O)c1ccc(C)cc1)cn2CC(=O)Nc1ccccc1C | 111 | 94 | -28 | 107
CC1CC(C)CN(C(=O)c2ccc(-n3c(=S)[nH]c4ccccc4c3=O)cc2)C1 (stereo unspecified) | 120 | 85 | nt | 104
COc1ccc(OCC(=O)NN)cc1 | 83 | 71 | -18 | 104
CC(C)(C)NS(=O)(=O)c1cccs1 | 118 | 81 | nt | 109
O=C1CSCN1Cc1cc(Cl)cc(Cl)c1 | 112 | 96 | -6 | 98
COC(=O)C1=C(NC(=O)Cc2cccs2)CCS1 | 93 | 90 | -31 | 94
Cc1ccc(-c2nc3ccccc3n3c(-c4ccccc4)c4c(=O)n(C)c(=O)n(C)c4c23)cc1 | 116 | 96 | -14 | 101
CC(C)CCn1c(=O)c2sccc2n2c(CCCC(=O)NC(C)C)nnc12 | 83 | 85 | nt | 102
N#Cc1ccc(N2C(=O)CSC(c3ccccc3)C2=O)cc1 (stereo unspecified) | nt | nt | -10 | 102
COc1ccc(-c2ccc(SCc3nc(-c4ccc(F)cc4)no3)nn2)cc1OC | nt | nt | -5 | 99
CCOC(=O)c1nc(Nc2ccc(Br)cc2)c2c(C)noc2n1 | nt | nt | 8 | 106
CN(CC(=O)Nc1ccc(F)cc1F)S(=O)(=O)c1ccc(C(=O)N2CCOCC2)s1 | 98 | 89 | nt | 105
O=C(CCCn1c(=O)oc2ccccc21)NNc1c(F)c(F)cc(F)c1F | 92 | 87 | -19 | nt
COc1cc(OC)cc(C(=O)Nc2ccc3c(c2)CCCN3C(=O)c2cccs2)c1 | 125 | 104 | nt | 105
COc1ccccc1-c1c(C)nn2c(NC(C)CCc3ccccc3)cc(C)nc12 (stereo unspecified) | nt | nt | -28 | 102
COc1ccc(-c2onc(C)c2C)cc1S(=O)(=O)NCC1CCN(Cc2cc(C)ccc2C)CC1 | 78 | 71 | nt | 99
CC(=N)c1c(O)c2ccccc2oc1=O | 99 | 87 | -8 | 105
Cn1c(N2CCN(C(=O)Cc3ccccc3Cl)CC2)nc2ccccc21 | nt | nt | -30 | 102
CCOC(=O)c1c[nH]n2c(=O)cc(-c3ccccc3)nc12 | 87 | 84 | 37 | 98
c1ccc(-c2noc(NC3CC3)n2)cc1 | 107 | 87 | -24 | 103
Cc1cccc(C(=O)Nc2nc3c(s2)CN(C)CC3)c1 | nt | nt | 2 | 103
Clc1ccc(Cn2nnc3ccccc32)cc1Cl | 87 | 91 | 27 | 103
COc1ccc(CC(NC(C)=O)C(=O)NC2CCN(c3nc(OC)nc(OC)n3)CC2)cc1 (stereo unspecified) | 103 | 75 | -4 | 97
O=C(CCc1c[nH]c2ccccc12)N1CCn2c(nc3ccccc32)C1 | 86 | 75 | nt | 102
CCCN(CCC)S(=O)(=O)c1csc(C(N)=O)c1 | nt | nt | -10 | 104
COc1cccc(CN(C)C(=O)c2cc3ccccc3cc2OCc2c(C)noc2C)c1OC | 102 | 86 | -16 | nt
Cc1nnc(SCC(=O)Nc2ccc(N(C)C)cc2)[nH]c1=O | 98 | 95 | 5 | 101
Nc1cc(OC(=O)c2ccccc2Cl)nn1S(=O)(=O)c1ccc(F)cc1 | nt | nt | -22 | 101
CN(C)c1nc(Oc2ccc(=O)n(-c3ccccc3)n2)nc(N(C)C)n1 | nt | nt | -13 | 105
Cc1ccc(-c2nc3nc[nH]n3c2Nc2ccccc2)cc1 | 90 | 96 | -3&-5 | 106&101
Cc1ccc(-n2nc(C)c3c(C)onc3c2=O)cc1 | 106 | 88 | -38 | 98
CCc1ccccc1NC(=O)Nc1cc(C(=O)NCc2cccc(F)c2)ccc1N1CCCC1 | 90 | 85 | nt | 101
Cc1cc(NS(=O)(=O)c2ccc(NC(=O)C3COc4ccccc4O3)cc2)nc(C)n1 (stereo unspecified) | 97 | 96 | 5 | 103
CC1CN(c2ccc(NC(=S)NCc3ccco3)cc2)CC(C)O1 (stereo unspecified) | 96 | 84 | -30 | 105
O=C(NCc1ccccn1)c1ccc(COc2ccc(Cl)cc2)o1 | 107 | 88 | -2 | 98
Cn1cc(S(=O)(=O)Nc2ccc(Oc3c(Cl)cccc3Cl)nc2)cn1 | 85 | 84 | -26 | 102
O=C(O)CCNC(=O)c1cccnc1 | 94 | 92 | nt | 102
COc1ccc(NC2=NS(=O)(=O)C(c3ccccc3)=C2C)cc1 | 80 | 84 | -13 | 97
COc1ccc2cc(C(=O)O)ccc2c1 | 117 | 85 | -10 | 101
O=C(NCC1COc2ccccc2O1)c1cccs1 (stereo unspecified) | 95 | 84 | -11 | nt
CN(C)c1ncnc2c1ncn2C1OC(CO)C(N)C1O (stereo unspecified) | 109 | 82 | -14 | nt
